# Vif TR-FRET = inhibitors of Vif binding to APOBEC3G peptide, primary screen, biochemical, TR-FRET, GST-Vif 1-94, biotin-A3G peptide, dose response retest (AID 1117319) | 0.57% of 260,000 active | TR-FRET GST-Vif / biotin-A3G peptide binding; higher % means a stronger effect; test concentration not given here; strong numbers were not always called active | Virion infectivity factor (Human immunodeficiency virus type 1 group M subtype B (isolate … | inhibition, %; hits with a dose series show IC50 in µM;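 active means above the screen mean plus three standard deviations and confirmed in dose response; inconclusive means results disagree or hit not tested in dose response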;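 further: Vif residues 1-94 fused to GST binding biotinylated APOBEC3G peptide 110-148; 0% = full assay without inhibitor and 100% = GST in place of GST-Vif; retest series ran down from 100 µM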
# RanGTP-Imp inh = inhibitors of RanGTP-importin-beta interaction, primary screen, biochemical, FRET, CFP-Ran, YFP-importin-beta, homogeneous; inhibition, % (test concentration not listed); 1.1% of 300,000 active; cell-free CFP-Ran/YFP-importin-beta FRET ratio; AID 2216, 2009;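 active means most replicates above 15%; inconclusive means exactly half above 15%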;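 further: 0% = DMSO wells and 100% = Ran loaded with GDP instead of GTP; wells of about 40 µL received 100 nL stock; the first replicate is given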
# Calb FLC = C. albicans growth inhibition with fluconazole, primary screen, CaCi-2 strain, Alamar Blue fluorescence | C. albicans CaCi-2 (fluconazole-resistant clinical isolate) + fluconazole, 48 h | 0.57% of 300,000 active | growth inhibition, % (no concentration beside the values);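 active means most replicates above 75%; inconclusive means exactly half above 75%; inactive means most below 75%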;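 further: all wells also contain fluconazole at 8 µg/ml as a sub-toxic cotreatment; 0% = median of DMSO wells and 100% = median of geldanamycin control wells; wells of about 8 µL received 7.5 nL stock; the first replicate is given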
# ALR H2O2 inh = inhibitors of human ALR sulfhydryl oxidase, primary screen, biochemical, H2O2 detection, HRP-luminol luminescence, single point; purified ALR, DTT oxidation; FAD-linked sulfhydryl oxidase ALR (Homo sapiens), P55789; AID 485317, 2010; 3.8% of 290,000 active; inhibition, % (concentration not given with the values);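 active means mean and each replicate at 75% or more; inconclusive means only one of the two met; inactive means neither met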;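 further: stock transfer was 7.5 nL into about 7.5 µL; 0% = neutral wells and 100% = wells with inactivated enzyme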
# LANA-H2B inh = blockers of LANA interaction with H2A/H2B – biochemical, FP readout, HTS, primary screen | 0.6% of 320,000 active | Protein LANA1 (Human herpesvirus 8 type P (isolate GK18)), Q9QR71 | cell-free LANA-H2A/H2B peptide, fluorescence polarization | inhibition, % (test concentration not listed); in the data active means inhibition mostly above about 10%, no sharp cut-off; inactive means mostly below about 6.7%;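 further: stock transfer was 7.5 nL into about 10 µL; 0% = median of vehicle wells and 100% = median of positive control wells; one replicate is shown; the record names a cut of 25% in any replicate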
# HNF4A DNA FP = change in binding of human HNF4A to DNA, primary screen, biochemical, fluorescence polarization, FITC-DNA. 0.3% of 360,000 active. Hepatocyte nuclear factor 4-alpha (Homo sapiens), P41235. AID 1224865, 2016. activity change, % at 10 µM. 1 h; in the data active means activity change above about 30%, passing the limit was not always enough;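 further: controls were the assay level and a saturating level of protein; the project sought stronger binding though the title names inhibitors; some compounds called inactive have numbers as strong as hits; positive values seem to mean higher polarization but the record does not say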
# Target sequence (P41235 whole entry, looked up): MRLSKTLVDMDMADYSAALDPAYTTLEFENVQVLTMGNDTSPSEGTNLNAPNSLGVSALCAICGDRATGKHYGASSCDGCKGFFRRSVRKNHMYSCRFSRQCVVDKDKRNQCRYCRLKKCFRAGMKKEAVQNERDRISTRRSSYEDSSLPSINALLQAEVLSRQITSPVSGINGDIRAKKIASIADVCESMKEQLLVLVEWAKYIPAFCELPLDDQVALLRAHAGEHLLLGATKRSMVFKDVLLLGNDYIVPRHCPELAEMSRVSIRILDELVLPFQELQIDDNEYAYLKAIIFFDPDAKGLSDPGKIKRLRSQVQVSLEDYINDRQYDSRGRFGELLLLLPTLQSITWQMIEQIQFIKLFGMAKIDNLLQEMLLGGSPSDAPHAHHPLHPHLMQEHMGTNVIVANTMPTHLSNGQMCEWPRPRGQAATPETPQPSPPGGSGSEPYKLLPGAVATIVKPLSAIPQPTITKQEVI
# Beta2AR agonist = beta2AR agonists driving receptor internalization, primary screen, cell-based, FAP fluorogen, flow cytometry; Beta-2 adrenergic receptor (Homo sapiens), P07550; Am2.2-beta2AR cells; reference of the scale not given here; response, % (concentration not given with the values); 0.43% of 340,000 active; AID 504454, 2011;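 active means response above a set limit, near 3 SD of response in nonfluorescent compounds, cut at about 42% in these data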;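 further: stock transfer was 100 nL into about 11 µL; a reference agonist was the positive control; negative values mostly stem from fluorescent compounds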
# Target sequence (P07550 whole entry, looked up): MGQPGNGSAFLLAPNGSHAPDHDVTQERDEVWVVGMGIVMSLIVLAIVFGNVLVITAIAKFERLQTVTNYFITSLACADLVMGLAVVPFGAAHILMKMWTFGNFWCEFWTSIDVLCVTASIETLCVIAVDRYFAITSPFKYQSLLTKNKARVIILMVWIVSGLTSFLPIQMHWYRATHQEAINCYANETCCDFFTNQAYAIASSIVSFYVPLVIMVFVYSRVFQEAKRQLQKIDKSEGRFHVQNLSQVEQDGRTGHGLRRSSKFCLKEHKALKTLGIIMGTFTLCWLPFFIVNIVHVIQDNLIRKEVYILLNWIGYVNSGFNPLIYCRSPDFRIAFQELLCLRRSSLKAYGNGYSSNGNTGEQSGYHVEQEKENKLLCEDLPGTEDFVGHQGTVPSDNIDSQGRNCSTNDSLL
# * = called active by the depositor; ? = inconclusive; . = not tested or not shown; & = joins results of further samples. Rows were taken by chance; any-hit rate near 6.3%.
SMILES | Calb FLC | Vif TR-FRET | ALR H2O2 inh | LANA-H2B inh | Beta2AR agonist | HNF4A DNA FP | RanGTP-Imp inh
Cc1cc(C)c2c(=O)n(CC(=O)N3CCC(N4CCCCC4)CC3)sc2n1 | -2 | 19% | 22 | 2.8 | -4 | -0.9 | -1.6
COc1ccc2c(c1)C1=NN(/C(C)=C\C(C)=O)C(c3ccccc3)C1CC2 (stereo not given) | 2 | 17% | -11 | -11 | 12 | 40* | -1.0
CCc1sc(C(=O)N2CCc3cc(OC)c(OC)cc3C2CC(=O)O)cc1C (stereo not given) | . | 1% | . | -4.5 | -6 | -0.4 | .
S=c1nc[nH]c2c1ncn2-c1ccccc1 | . | -2% | . | . | -3 | 2.7 | .
Cc1cc(C)c2[nH]c(O)c(N=Nc3ccc(C(=O)O)cc3)c2c1 | 0 | . | -19 | 2.8 | 5 | -1.0 | -3.1
CCn1cc(CN2CCN(Cc3cccc(OC)c3)C(CCO)C2)c(C)n1 (stereo not given) | -17 | 24% | . | -1.9 | 7 | 4.3 | 3.4
Oc1nc(Nc2ccc(Cl)cc2Cl)sc1/C=C1\C=Nc2ccccc21 | -10 | ? | 1 | 1.7 | 1 | 12 | 1.8
O=Cc1ccc(Oc2ncccn2)cc1 | 1 | ? | -5 | . | 0 | 2.8 | -2.7
COC(=O)c1ccc(CO/N=C/c2ccc(OC)cc2)o1 | -8 | -2% | 24 | -0.4 | 15 | 5.1 | 4.7
COc1ccccc1NC(=O)CSc1nnc2ccc(-c3ccccn3)nn12 | -4 | -8% | . | 0.6 | 0 | -6.1 | 6.0
CSc1ccccc1NC(=O)c1cc(-c2ccco2)on1 | 0 | . | . | 2.4 | 8 | 3.0 | -3.5
CCN(CC)C(=O)c1nc[nH]c1C(=O)N(CC)CC | . | . | -16 | -0.3 | -3 | -1.3 | .
COC(=O)COc1cccc(NC(=O)c2ccc(Cl)cc2)c1 | 3 | -4% | -6 | 4.2 | 5 | -3.9 | -6.1
O=C(Nc1cccc2ccccc12)OCc1ccccc1 | . | -8% | . | . | -6 | -0.3 | .
CCCCn1nnnc1SCC(=O)Nc1cccc(C)c1 | 0 | . | -2 | 0.7 | -15 | 0.2 | -4.7
CCOC(=O)C1=C(C)NC(C)=C(C(=O)OCC)C1C | 3 | -7%&-3% | 2 | -0.7 | 6 | 2.4 | -3.4
CCC(C)NC(=O)C1CCN(S(=O)(=O)N2CCCC2)CC1 (stereo not given) | 6 | 0% | . | 2.1 | 2 | -3.7 | 5.4
O=C(CCN1CCN(c2ccccc2F)CC1)Nc1ccc2c(c1)OCO2 | -18 | 19% | -4 | 3.4 | -1 | -1.2 | -1.4
CCOC(=O)Cc1cc(=O)[nH]c(/N=C(\N)Nc2ccc(OC)cc2)n1 | -2 | 3% | 10 | 8.9 | 1 | -2.5 | 0.3
O=C1CC(SCc2nc3ccccc3[nH]2)C(=O)N1c1cccc(Cl)c1 (stereo not given) | -20 | -4% | 98* | 1.2 | -8 | -1.3 | 2.9
COc1ccc(-c2csc(NC(=O)c3ccoc3C)n2)cc1 | 6 | -5% | -1 | 2.4 | 1 | -0.2 | -1.6
O=C(O)c1ccc(N/N=C/c2cn(Cc3ccc(F)cc3)c3ccccc23)cc1 | -10 | 10% | 99* | 2.3 | 28 | -0.1 | 0.2
COc1ccc(NC(=O)CN(C)C(=O)c2cc(-c3ccccc3)nc3ccccc23)cc1 | -3 | . | -7 | -3.1 | 4 | 1.3 | .
CCCCCCCC(=O)NNC(=O)c1ccc([N+](=O)[O-])cc1 | -12 | 4% | -57 | 3.1 | 1 | 1.3 | -1.4
c1ccc(Cc2noc(CN3CCN(C4CCc5ccccc5C4)CC3)n2)cc1 (stereo not given) | -11 | -4% | . | -3.2 | -5 | 2.5 | 2.7
CC(C)(Oc1ccc(Br)cc1Cl)C(=O)Nc1ccon1 | 7 | . | 5 | 8.2 | -1 | 2.1 | 0.2
CC(NCc1ccc(-c2ccccc2)cc1)C(O)c1ccccc1 (stereo not given) | 1 | . | -17 | 2.9 | 3 | 1.7 | 4.2
CCCCOCCCNS(=O)(=O)Cc1ccccc1 | -1 | 5% | -5 | 1.5 | 13 | 1.3 | 2.0
O=C(CN1CCCCC1)N=Nc1c(O)[nH]c2ccccc12 | -12 | -4% | -8 | 8.8 | -13 | -3.6 | 2.8
CCCc1cc(C(=O)Nc2ccc(F)c(Cl)c2)no1 | -23 | . | . | -6.0 | 11 | -3.4 | 0.6

# Grouped by structure, the compounds so far with an aryl thioether with sulfur outside any ring
SMILES | Calb FLC | Vif TR-FRET | ALR H2O2 inh | LANA-H2B inh | Beta2AR agonist | HNF4A DNA FP | RanGTP-Imp inh
COc1ccccc1NC(=O)CSc1nnc2ccc(-c3ccccn3)nn12 | -4 | -8% | . | 0.6 | 0 | -6.1 | 6.0
CSc1ccccc1NC(=O)c1cc(-c2ccco2)on1 | 0 | . | . | 2.4 | 8 | 3.0 | -3.5
CCCCn1nnnc1SCC(=O)Nc1cccc(C)c1 | 0 | . | -2 | 0.7 | -15 | 0.2 | -4.7

# (next part)
SMILES | Calb FLC | Vif TR-FRET | ALR H2O2 inh | LANA-H2B inh | Beta2AR agonist | HNF4A DNA FP | RanGTP-Imp inh
COc1cccc(CC2(CO)CCCN(Cc3ccc(C)s3)C2)c1 (stereo not given) | -14 | -9% | . | 0.7 | 10 | 3.0 | ?
COc1cccc(N=Cc2c(O)n(-c3cccc(C)n3)c(=O)c3ccccc23)c1 | 37 | 4% | -14 | -1.2 | -3 | -0.1 | -1.4
Cc1ccc(NC(=O)N2CCCC2C(=O)NCCc2ccccc2)cc1 (stereo not given) | 2 | 18% | . | . | -3 | -2.6 | 9.7
O=C(/C=C\c1ccco1)Nc1nc(-c2ccccc2)cs1 | 9 | . | 0 | 1.3 | 3 | -4.4 | ?
COC(=O)c1cc(-c2ccc(S(=O)(=O)N3CCCCC3)cc2)c(C(F)(F)F)s1 | -1 | ? | . | -1.0 | 4 | 3.9 | ?
Cc1cc(C)cc(Nc2c(F)c(F)c(F)c(F)c2C(=O)O)c1 | -6 | 2% | 42 | -3.3 | -2 | 2.1 | ?
CCOC(=O)c1c(NC(=O)CSc2c[nH]c3ccccc23)sc2c1CCC2 | 1 | 11% | . | 9.0 | -2 | -0.7 | -3.5
O=C(O)c1ccc(NCc2nc3cc4ccccc4cc3[nH]2)cc1 | . | -7% | . | . | -4 | -3.5 | .
O=c1[nH]ncn1-c1ccccc1 | -1 | 6% | -5 | -11 | 1 | -2.4 | 0.7
CCCNS(=O)(=O)c1ccc(CCC(=O)NCc2cccnc2)cc1 | 1 | 1% | -15 | -0.8 | 7 | 1.2 | -3.8
Cc1[nH]c2ccccc2c1C(=O)COC(=O)c1c(-c2ccccc2Cl)noc1C | 8 | 2% | -10 | -7.2 | 8 | -1.7 | 0.9
CCCNC(=S)Nc1ccc(Oc2ccccc2)cc1 | -33 | -5% | 9 | -1.6 | -3 | -0.5 | 0.1
COCCN1Cc2cccc(C(=O)Nc3ccc(S(=O)(=O)N4CCCCC4)cc3)c2C1=O | -1 | ? | -4 | 0.3 | 4 | -3.1 | 0.1
CC(C)(C)OC(=O)C[C@H]1C/C=C\C[C@H](CC(=O)N[C@H](CO)Cc2ccccc2)C(=O)N2CCC[C@@H]2COC1=O | . | . | -1 | 4.9 | -1 | 1.3 | .
Cc1cc(NC(=O)Cn2nc(-c3cccs3)ccc2=O)cc(C)c1Br | -5 | . | 1 | 2.1 | -4 | 0.2 | 6.4
CC(C)(C)c1ccc(OCC(=O)NNC(=O)Cc2cccs2)cc1 | 2 | 4% | 0 | -3.0 | 3 | 0.2 | 0.6
COC(=O)c1cc(S(=O)(=O)Nc2cccc(OC)c2)cn1C | 10 | . | -8 | -1.4 | 7 | -2.4 | 3.1
Cc1cccc(C)c1NC(=O)CSc1nnc(NC(=O)C2CC2)s1 | -1 | . | 1 | -7.8 | 3 | 0.5 | -1.2
Cc1cc(=O)[nH]c(N/N=C/c2ccc(-c3ccc([N+](=O)[O-])cc3)o2)n1 | 0 | . | 15 | 0.0 | 5 | 3.6 | 1.3
CN(CC(=O)Nc1cccc(C(F)(F)F)c1)Cc1ccccc1 | -13 | . | . | 7.2 | -2 | 1.7 | -1.6
Nc1nonc1-n1nnc(C(=O)N/N=C/c2ccoc2)c1-c1ccccc1 | 0 | . | . | -1.5 | -16 | -0.5 | -3.2
COc1ccc(-c2nnc(SCC(=O)O)n2Cc2ccccc2)cc1 | 12 | . | . | -3.0 | 1 | -0.7 | 0.5
Cc1ccc2c(c1C)OC(=O)CC2c1ccccc1 (stereo not given) | -22 | . | -5 | 4.4 | -4 | 0.5 | 1.7
CCCCN(CCCC)CCNC(=O)c1cn(CC)c2ccc(S(=O)(=O)N(C)C3CCCCC3)cc2c1=O | 0 | . | 0 | 0.5 | 9 | 3.7 | 1.5
O=C(Cn1ncc2c(=O)oc3ccccc3c21)Nc1nc2ccccc2s1 | -26 | -1% | . | . | . | . | 1.1
Cc1cccc(C(=O)n2cnnc2N)c1 | -21 | -6% | 10 | -2.4 | -6 | 2.2 | -3.0
O=C(/C=C/c1cccc([N+](=O)[O-])c1)NCCSCc1ccc(Cl)cc1Cl | -7 | 2% | -8 | 2.4 | -6 | 3.1 | -0.9

# In the list so far, these have two or more sulfur atoms.
SMILES | Calb FLC | Vif TR-FRET | ALR H2O2 inh | LANA-H2B inh | Beta2AR agonist | HNF4A DNA FP | RanGTP-Imp inh
COC(=O)c1cc(-c2ccc(S(=O)(=O)N3CCCCC3)cc2)c(C(F)(F)F)s1 | -1 | ? | . | -1.0 | 4 | 3.9 | ?
CCOC(=O)c1c(NC(=O)CSc2c[nH]c3ccccc23)sc2c1CCC2 | 1 | 11% | . | 9.0 | -2 | -0.7 | -3.5
Cc1cccc(C)c1NC(=O)CSc1nnc(NC(=O)C2CC2)s1 | -1 | . | 1 | -7.8 | 3 | 0.5 | -1.2
